# High-throughput results deposited in PubChem by National Center for Advancing Translational Sciences (NCATS).
# Resorufin autofl: compounds fluorescent in resorufin spectral region. Compound fluorescence, resorufin region 547/598 nm, buffer; stronger effect = higher value. max dye-equivalent concentration, M. 0.04% of 59,000 active. AID 588; active = above 10 nM dye equivalent; inconclusive = 1 to 10 nM; inactive = 1 nM or less; a few of its hits are not listed in these tables; note: highest value over a series up to 38 µM
#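 Compounds in 100 mM Tris buffer, pH 8.0, incubated 15 min at room temperature, then read with 547 nm excitation and 598 nm emission filters. Fluorescence was converted to dye-equivalent concentration using an on-plate six-point resorufin standard curve.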
# AID923: qHTS Assay for Allosteric/Competitive Inhibitors of Caspase-1: Spectroscopic Profiling in AFC Spectral Region; 1.1% of 75,000 active; Potency, µM (series often up to 57.5 µM), for inactives: at the top dose fluorescence increase, usual class: activators; AID 923, 2007; compound fluorescence, AFC spectral region (405/520 nm); almost no hit is shown here; active = well fitted activation curve with a large enough effect; inconclusive = small, poorly fitted or top-dose-only effect;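 note: potency is the fitted concentration of half-maximal effect; 0% is about no effect; scaled to a free AFC standard on each plate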
#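 Compound autofluorescence profiled at 405 nm ex/520 nm em during kinetic caspase 1 run (50 nM enzyme, 5 uM Ac-WEHD-AFC, HEPES pH 7.5, 10 mM DTT). Titration up to 57 uM; baseline from regression intercept, normalized to AFC standard curve.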
# TSHR agonist: activates the human thyroid stimulating hormone receptor | P16473 | HEK293-CNG-TSHR cells (CNG channel as cAMP sensor), membrane potential dye, cAMP | Potency, µM (series often up to 57.1 µM), without a hit: at the highest dose activation, most hits filed as activators | 0.48% of 73,000 active; active = well fitted activation curve of enough size with the parental cells flat; inconclusive = any curve in the parental cells; inactive = parental cells flat and receptor cells flat or falling; note: potency is the fitted concentration of half-maximal effect; % of control where 0% means no effect; weak receptor curves with flat parental cells got no call and are not listed
# Target sequence (P16473 whole entry, looked up): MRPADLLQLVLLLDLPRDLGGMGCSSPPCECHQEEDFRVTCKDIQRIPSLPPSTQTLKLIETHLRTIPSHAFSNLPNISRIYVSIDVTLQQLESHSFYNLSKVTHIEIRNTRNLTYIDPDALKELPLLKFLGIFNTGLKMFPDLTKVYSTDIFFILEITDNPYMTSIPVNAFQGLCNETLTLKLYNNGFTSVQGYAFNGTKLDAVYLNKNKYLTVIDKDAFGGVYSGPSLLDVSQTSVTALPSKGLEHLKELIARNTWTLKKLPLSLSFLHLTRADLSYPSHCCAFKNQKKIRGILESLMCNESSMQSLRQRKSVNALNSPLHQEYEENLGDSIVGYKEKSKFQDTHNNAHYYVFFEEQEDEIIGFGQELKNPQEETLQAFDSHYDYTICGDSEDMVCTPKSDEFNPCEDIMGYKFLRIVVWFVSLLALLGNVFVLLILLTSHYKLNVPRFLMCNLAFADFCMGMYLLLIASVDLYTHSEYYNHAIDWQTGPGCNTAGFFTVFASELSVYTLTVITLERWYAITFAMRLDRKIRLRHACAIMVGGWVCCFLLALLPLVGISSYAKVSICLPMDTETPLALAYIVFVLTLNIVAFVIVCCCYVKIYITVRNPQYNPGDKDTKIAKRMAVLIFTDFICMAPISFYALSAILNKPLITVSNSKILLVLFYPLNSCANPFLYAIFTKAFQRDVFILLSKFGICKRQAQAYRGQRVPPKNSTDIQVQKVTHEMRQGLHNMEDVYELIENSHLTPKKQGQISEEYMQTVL
#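 HEK 293 cells stably expressing TSHR and a cAMP-gated CNG channel; parental CNG-only cells as counterscreen. Cells preloaded 60 min with membrane potential dye plus 100 uM RO 20-1724, then compound 30 min; fluorescence read at 590 nm.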
# A488 fluor: A488 region autofluorescence; 0.1% of 59,000 active; max dye equivalency, M; AID 591; compound autofluorescence, A488 spectral region, dye equivalency; stronger effect = higher value; active = above 10 nM dye equivalent; inconclusive = 1 to 10 nM; inactive = 1 nM or less; about half of its hits are not listed in these tables;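 note: highest value over a series up to 38 µM; compound alone in buffer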
#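 Readout is A488 dye-equivalent concentration, calibrated by a per-plate six-point Alexa 488 series. Compounds in 100 mM Tris buffer pH 8.0 were incubated 15 min at room temperature. Plates were imaged using 480 nm excitation/540 nm emission filters.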
# A647 autofl: compound fluoresces in the A647 spectral region | Compound fluorescence, A647 channel (570/671 nm), Tris buffer | max dye-equivalent concentration, M | 59,000 tested, under 10 active; active means above 1 µM dye equivalent; inconclusive means 0.1 to 1 µM; inactive means 0.1 µM or less;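 note: values scaled relative to a standard on each plate; highest value over a series up to 38 µM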
#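 Fluorescence read (570 nm ex, 671 nm em) after 15 min RT incubation of compounds in 100 mM Tris buffer, pH 8.0; values expressed as dye-equivalent concentration against a six-point A647 standard series on each plate.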
# An asterisk follows results filed as active; i = inactive; ? = inconclusive; · = not tested or not shown; & = joins results of further samples; [ ] = dose if it differs, or a comment. Some of the compounds tested; rates above refer to the full screens.
Compound	Resorufin autofl	AID923	TSHR agonist	A488 fluor	A647 autofl
COc1cccc(-c2nc(N3CCCCC3C)c3ccccc3n2)c1O (stereo not drawn)	i	·	·	i	1e-09
O=C(c1csc2ccccc12)N1CCN(c2ccccn2)CC1	i	-0.4%	15%	i	1e-09
CCOC(=O)C1=C(C)NC(SCC(=O)Nc2nc(C)cs2)=C(C#N)C1c1cccs1 (stereo not drawn)	i	·	·	i	?
O=C(NCN1C(=O)C2C3C=CC(C3)C2C1=O)Nc1nccs1 (stereo not drawn)	i	0.0%	-4%	i	3.4e-09
O=C(O)CC(C(=O)O)C(CC(=O)O)C(=O)O (stereo not drawn)	·	-2.6%	-12%	·	·
O=P(c1ccccc1)(c1ccccc1)C(O)c1ccco1 (stereo not drawn)	·	-2.1%	6%	·	·
CCOc1ccccc1OCC(=O)Nc1ccc(S(=O)(=O)Nc2nc(C)cc(C)n2)cc1	i	-1.1%	0%	i	1.9e-08
COc1cc(OC)cc(-n2nc(C(=O)NCCCN3CCOCC3)c3ccccc3c2=O)c1	i	-0.8%	3%[11.4 µM]	i	1e-09
CN(C)CCNc1oc(COc2ccc(Cl)cc2)nc1C#N	i	5.0%	0%	i	3.4e-08
O=C1CC(c2cccc(Br)c2)C2=C(CCCC2=O)N1 (stereo not drawn)	i	0.4%	·	i	3.6e-08
CCOC(=O)N1CCN(CC(=O)n2c(C)c(C)c3ccccc32)CC1	i	2.2%	26%	i	2.1e-08
Cc1[nH]nc2c1C(c1cn[nH]c1-c1ccc(F)cc1)C(C#N)=C(N)O2 (stereo not drawn)	i	1.3%	-5%	i	1e-09
COc1ccc(OC)c(-c2cc(C(=O)N3CCc4ccccc4C3)no2)c1	i	1.8%	?	i	2e-09
O=C(c1ccc(Br)cc1)N1CCN(S(=O)(=O)c2ccccc2)CC1	·	0.4%	-4%	·	·
N#Cc1nc(-c2ccc(OCc3ccccc3)cc2)oc1N1CCC(C(N)=O)CC1	i	-2.5%	7%	i	3e-08
Cc1ccccc1C(=O)N1CCC(C(=O)Nc2cccc(F)c2)CC1	·	0.2%	20%	·	·
CCCCc1cc(=O)oc2cc(C)cc(OC(C)C(=O)O)c12 (stereo not drawn)	i	-0.6%	-7%	i	1e-09
CCOC(=O)c1cc2cc(F)ccc2nc1C	i	-2.0%	?	i	1.8e-08
COc1ccc(-c2c3c(=O)n(C)c(=O)n(C)c3cn2-c2ccccc2)cc1	i	-1.1%	9%	i	1e-09
CCOC(=O)c1sc(NC(=O)c2ccc(Cl)s2)cc1C	·	5.0%	-9%	·	·
CCCCn1c(=O)cc(N2CCOCC2)[nH]c1=O	·	-1.9%	?	·	·
CCOCCCNC(=O)c1ccc(CS(=O)(=O)Cc2cccc(C)c2)o1	i	-0.5%	1%	i	1e-09
O=S(=O)(CCSc1nc2ccccc2o1)Cc1ccccc1	i	-0.7%	12%	i	4.1e-09
COc1cccc(Cn2c(C3CC3)nc3ccc(NC(=O)c4ccco4)cc3c2=O)c1	i	2.2%	8%[11.4 µM]	i	1e-09
O=C(Nc1nccs1)c1c(O)c2cccc3c2n(c1=O)CCC3	i	1.4%	?	i	8.1e-09
Cn1c(=O)oc2cc(S(=O)(=O)NC(Cc3ccccc3)C(=O)N3CCCCC3)ccc21 (stereo not drawn)	·	-1.1%	6%	·	·
O=C(c1ccncc1)N1CCC2(CCCN(Cc3ccncc3)C2)CC1	i	0.2%	-57%	i	1e-09
COc1ccc(-c2cn3cc(C)ccc3n2)cc1OC	i	1.6%	12%	i	4.2e-08
CC(C)CN(C#N)c1nc(N2CCOCC2)nc(N2CCOCC2)n1	i	0.2%	9%[11.4 µM]	i	1e-09
Cc1ccc(-c2cc(C(=O)Nc3cc(C)on3)c3ccccc3n2)c(C)c1	·	-0.1%	?	·	·
Cc1nc(NC2=NCN(Cc3ccco3)CN2)nc2ccccc12	i	-1.5%	-13%	i	1.7e-09
CCOC(=O)C1CCCN(C(=O)CCCOc2cc(=O)n(C)c3ccccc23)C1 (stereo not drawn)	i	0.5%	-5%[11.4 µM]	i	1.9e-08
CCOC(=O)N1CCN(c2ccc(S(=O)(=O)N(Cc3ccccc3)Cc3ccccc3)cn2)CC1	i	1.1%	?	i	4e-08
CCOc1ccc(N2CC(=O)SC2=S)cc1	·	-1.2%	7%	·	·
Cc1cc(N2CCCCC2)nc2ccc(Cc3ccc4nc(N5CCCCC5)cc(C)c4c3)cc12	i	3.2%[11.5 µM]	2%[11.4 µM]	i	3.4e-09
COc1ccc2c(c1OC)C(=O)N1c3ccccc3C(=O)N(c3ccc(F)cc3)C21 (stereo not drawn)	i	·	·	i	9.3e-08
O=C(CCSCCC(=O)NCC1CCCO1)NCC1CCCO1 (stereo not drawn)	i	2.0%	-14%	i	1.1e-08
O=C(CSc1nc(Nc2ccccc2)nc(N2CCOCC2)n1)Nc1ccccc1Cl	i	0.8%	·	i	6e-09
Cc1cc(=O)oc2ccc(OCC(=O)N(Cc3ccc(F)cc3)Cc3ccco3)cc12	i	0.2%	10%	i	9.4e-09
CCOC(=O)C1C2C=CC3(CN(c4cccc(Cl)c4)C(=O)C13)O2 (stereo not drawn)	·	0.3%	-7%	·	·
O=C(NS(=O)(=O)c1ccc2c(c1)OCCO2)c1ccccc1	i	-0.2%	5%	i	3.6e-09
CCOC(=O)C1CCN(c2c(Nc3ccc4c(c3)OCCO4)c(=O)c2=O)CC1	·	-1.9%	-38%[inhibitor]	·	·
CCn1c(=O)c(C(=O)Nc2cnccn2)c(O)c2ccccc21	i	1.0%	4%	i	1.4e-08
Cc1cccc(C)c1NC(=O)C1CCCNC1 (stereo not drawn)	i	-0.9%	0%	i	1e-09
CN(C(=O)c1ccncc1)c1nnc(-c2cnccn2)s1	i	0.2%	-1%	i	1e-09
CC1(C)CN=C(NC2CCCCC2)S1	·	2.1%	-9%	·	·
COc1cccc(-c2cc(C(=O)Nc3ccc(OC)c(OC)c3)no2)c1	i	1.0%	0%[11.4 µM]	i	1.3e-08
Nc1cccc(S(=O)(=O)O)c1	·	0.6%	?	·	·

# As entered above:
# CCOC(=O)C1CCN(c2c(Nc3ccc4c(c3)OCCO4)c(=O)c2=O)CC1 in AID923 = -1.9%
# CCOC(=O)C1C2C=CC3(CN(c4cccc(Cl)c4)C(=O)C13)O2 (stereo not drawn) in TSHR agonist = -7%

# New compounds follow:
Compound	Resorufin autofl	AID923	TSHR agonist	A488 fluor	A647 autofl
O=C1CC(c2cccnc2)c2cc3c(cc2N1)OCCO3 (stereo not drawn)	·	-1.1%	12%	·	·
CC(NC(=O)NC1CCCCC1)C(c1cccs1)N1CCOCC1 (stereo not drawn)	·	-1.7%	14%	·	·
COc1ccc(S(=O)(=O)N2CCN(Cc3ccc(Cl)cc3)CC2)cc1	i	0.8%	21%	i	1e-09
CC1CCc2sc3c(c2C1)c1ncnn1c(=O)n3CC(=O)c1ccc(Br)cc1 (stereo not drawn)	i	0.8%	?	i	1e-09
COc1ccc(NC(=O)N2CC[C@@]3(CCCN(C(=O)c4cccc(F)c4)C3)C2)cc1	i	1.0%	1%	i	1.9e-08
CCOC(=O)CCc1c(C)n(CC)c2ncnn2c1=O	·	3.7%	-1%	·	·
O=c1cnn([C@@H]2O[C@H](CO)[C@@H](O)[C@H]2O)c(=O)[nH]1	·	-0.8%	-1%	·	·
Cc1ccc(SCC(=O)N(Cc2nc(-c3ccccc3)no2)C(C)C)cc1	i	-2.6%	?	i	4.2e-08
c1ccc(CN2CCC(N3CCN(Cc4ccc5c(c4)OCO5)CC3)CC2)cc1	·	1.6%	?	·	·
CCC(=O)Nc1cc(NC(=O)CSc2nnc(C(C)C)n2CC)ccc1C	i	-1.2%	-1%	i	3e-08
COc1cc(-c2csc(N3CCOCC3)n2)cc(OC)c1OC	i	-0.9%	0%	i	2.4e-08
CCOc1nc(-c2ccncc2)nc2ccccc12	i	·	·	i	1e-09
Cn1c(=O)c(=O)n(C)c2cc(S(=O)(=O)N3CCCCC3)ccc21	i	-1.9%	25%	i	1e-09
CN1CCN(C(CNS(=O)(=O)c2ccc(F)cc2)c2cccnc2)CC1 (stereo not drawn)	i	-0.2%	?	i	1.6e-08
Cc1cccc2cc(COC(=O)c3ccccn3)c(=O)[nH]c12	i	0.5%	-10%	i	2.5e-08
O=C(CSc1nnc(-c2cnccn2)n1Cc1ccco1)c1ccc(Cl)c(Cl)c1	i	0.6%	?	i	1e-09
Cc1cc(/C=N/n2cnnc2)c(C)n1-c1cccc(C(=O)O)c1	·	-1.0%	-2%	·	·
O=C(NCCSCc1c(F)cccc1Cl)c1ccco1	i	1.4%	11%	i	1e-09
O=C(Nc1ccc(Cl)cc1C(=O)NCc1cccnc1)c1ccco1	i	4.6%	?	i	6.6e-09
O=C(c1cnccn1)N1CCc2ccccc21	i	1.8%	0%	i	3.2e-08
Cc1noc(C)c1CSc1ccccc1C(=O)Nc1nccs1	i	0.2%	9%	i	4.1e-08
O=C(Cc1cn2ccsc2n1)NCc1ccccc1	i	1.3%	·	i	1e-09
CCN1C(=O)C2(C(C(=O)c3ccc(C)o3)=C(O)C(=O)N2CCCN2CCOCC2)c2ccccc21 (stereo not drawn)	i	0.1%	2%[11.4 µM]	i	1e-09
CCCC(=O)NC(c1ccco1)c1cc(Cl)c2cccnc2c1O (stereo not drawn)	·	2.7%	?	·	·
COc1cc(OC)cc(C(=O)N2CCN(c3ncccn3)CC2)c1	i	0.5%	6%	i	2.8e-08
Cc1ccc(-c2noc(CN(C(=O)CCCN3C(=O)c4ccccc4C3=O)C(C)C)n2)cc1	i	-0.9%	?	i	1.3e-08
CCCCc1nc2n[nH]c(N)c2c2c1CCC2	i	-1.0%	·	i	3.9e-08
N[C@H](CCCP(=O)(O)O)C(=O)O	i	0.1%&-4.9%	1%&1%&3%	i	2e-08
O=C(c1cc(-c2ccc(F)cc2)on1)N1CCCC1	i	-1.0%	-1%	i	2.9e-08
COc1ccc(CCNC(=O)CN(C)S(=O)(=O)c2cccs2)cc1OC	i	-1.2%	-1%	i	1.6e-09
Cc1ccc(-c2nc3cccnc3o2)cc1NC(=O)COc1ccc(Cl)cc1C	·	-2.1%	17%	·	·
Cc1nn(C)cc1CNC(=O)c1cnn2c(C(F)F)cc(C3CC3)nc12	i	-2.0%	20%	i	2.9e-09
COc1nc(NC(C)=O)nc(C)c1Br	·	0.3%	1%	·	·
CCCSCCCNC(=O)Cn1cc2c(n1)CCCCC2	·	0.9%	21%	·	·
CCCCc1n[nH]c2c1/C(=N/O)CC(c1ccccc1)C2 (stereo not drawn)	i	-0.8%	9%	i	1e-09
Cc1cnn(Cc2ccccc2)c1N	i	0.5%	·	i	1.7e-08
Cc1ccccc1Cn1nnc(-c2cccc(C(=O)O)c2)n1	i	1.0%	?	i	1e-09
Cc1ccc(CNC(=O)CN2CCN(Cc3ccc(Cl)cc3)C2=O)cc1	i	0.5%	0%	i	1e-09
CC(=O)n1cc(C2C(=O)CCCC2=O)c2ccccc21	i	-2.0%	-9%	i	1e-09
Cn1c(C(=O)NC2CCCCCC2)cc2c(=O)n(C)c3ccccc3c21	·	2.2%	2%	·	·
COc1ccc(O)c(-c2[nH]ncc2C(=O)c2ccccc2C)c1	i	0.0%	5%	i	2.8e-09
O=C(Nc1c(F)cc(F)cc1Br)c1cccnc1	i	-1.5%	-1%	i	4e-09
